LANA-H2A inh: blocks KSHV LANA binding to histone H2A/H2B | Q9QR71 | cell-free LANA-H2A/H2B peptide, fluorescence polarization | inhibition, % (no concentration beside the values) | 320,000 compounds, 0.6% hits; in the data active means inhibition mostly above about 10%, no sharp cut-off; inactive means mostly below about 6.7%;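 further: stock transfer was 7.5 nL into about 10 µL; 0% = median of vehicle wells and 100% = median of positive control wells; one replicate is shown; the record names a cut of 25% in any replicate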
Calb FLC: C. albicans growth modulation with fluconazole; C. albicans CaCi-2 (fluconazole-resistant clinical isolate) + fluconazole, Alamar Blue growth, 48 h; 300,000 compounds, 0.57% hits; growth inhibition, % (concentration not given with the values);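 active means most replicates above 75%; inconclusive means exactly half above 75%; inactive means most below 75%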;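 further: all wells also contain fluconazole at 8 µg/ml as a sub-toxic cotreatment; 0% = median of DMSO wells and 100% = median of geldanamycin control wells; wells of about 8 µL received 7.5 nL stock; the first replicate is given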
T cruzi inh: T. cruzi replication inhibition; 300,000 compounds, 1.4% hits; inhibition, % (concentration not given with the values); T. cruzi beta-gal in NIH3T3, luminescence, 90 h;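 active means mean inhibition across valid replicates above about 55%, limit read from the data; inconclusive means mean below that limit but half or more replicates reach it; inactive means mean below it, under half of replicates reach it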;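 further: signal also drops with host cell toxicity which is not excluded here; 0% = plate median of DMSO wells and 100% = zero luminescence signal; higher percent means less beta-gal luminescence so fewer parasites; stock transfer was 50 nL into about 50 µL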
B2AR ag: activates human beta-2 adrenergic receptor causing internalization | AID 504454 | Am2.2-beta2AR cells, FAP receptor internalization, flow cytometry; reference of the scale not given here | P07550 | response, % (concentration not given with the values) | 340,000 compounds, 0.43% hits;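 active means response above a set limit, near 3 SD of response in nonfluorescent compounds, cut at about 42% in these data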;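 further: stock transfer was 100 nL into about 11 µL; a reference agonist was the positive control; negative values mostly stem from fluorescent compounds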
Target sequence (P07550 whole entry, looked up): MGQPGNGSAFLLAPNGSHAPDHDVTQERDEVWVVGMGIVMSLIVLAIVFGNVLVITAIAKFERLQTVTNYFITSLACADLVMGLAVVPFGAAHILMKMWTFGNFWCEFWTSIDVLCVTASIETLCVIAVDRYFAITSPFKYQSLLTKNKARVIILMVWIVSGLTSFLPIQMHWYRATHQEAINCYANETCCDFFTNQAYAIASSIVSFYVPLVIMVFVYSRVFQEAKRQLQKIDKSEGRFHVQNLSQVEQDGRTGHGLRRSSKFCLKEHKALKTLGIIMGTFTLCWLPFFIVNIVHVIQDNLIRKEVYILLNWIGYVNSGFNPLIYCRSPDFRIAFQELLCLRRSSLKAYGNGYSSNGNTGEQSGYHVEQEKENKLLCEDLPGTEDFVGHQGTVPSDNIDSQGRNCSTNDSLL
Beta cell apopt: blocks beta cell apoptosis | INS-1E cytokine-induced death, ATP luminescence, 48 h; percent of positive-control rescue, neutral wells zero | protection from apoptosis, % (concentration not given with the values) | 300,000 compounds, 0.8% hits;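 active means all replicates at 75% or more, or half of them and the mean; inconclusive means half reach 75% but not the mean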;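 further: 0% = cytokine-treated negative control wells and 100% = positive control rescue; higher means more ATP so stronger rescue from cytokine killing; wells of about 40 µL received 100 nL stock; the first replicate is given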
ALR H2O2 inh: blocks human ALR sulfhydryl oxidase activity. P55789. purified ALR, DTT oxidation, H2O2 HRP-luminol luminescence. 290,000 compounds, 3.8% hits. inhibition, % (concentration not given with the values);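 active means mean and each replicate at 75% or more; inconclusive means only one of the two met; inactive means neither met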;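 further: stock transfer was 7.5 nL into about 7.5 µL; 0% = neutral wells and 100% = wells with inactivated enzyme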
Target sequence (P55789 whole entry, looked up): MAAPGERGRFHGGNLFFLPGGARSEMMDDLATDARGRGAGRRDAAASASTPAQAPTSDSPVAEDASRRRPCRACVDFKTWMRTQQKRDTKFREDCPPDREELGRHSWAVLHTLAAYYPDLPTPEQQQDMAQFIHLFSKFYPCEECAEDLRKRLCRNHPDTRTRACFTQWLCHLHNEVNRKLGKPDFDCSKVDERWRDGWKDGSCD
A1 inh: inhibitors of the anti-apoptotic protein A1, read as caspase activation; MEF A1-2A-BIM cells, Caspase-Glo 3/7 luminescence, 3 h; percent of clofoctol response, vehicle zero; caspase activation, % (test concentration not listed); 330,000 compounds, 0.066% hits; AID 2462;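 active means over half of replicate activation scores above 10%, or exactly half above 10 with the replicate mean above 10; inconclusive means replicate mean below 10 yet half the replicates above 10; inactive means over half of replicates below 10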;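 further: wells of about 30 µL received 50 nL stock; many hits fall short of the cut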
Ecoli rRNA inh: inhibitors of bacterial rRNA selective over humanized ribosomes; 350,000 compounds, 1.6% hits; GFP signal change (wild-type ribosome), % (test concentration not listed); E. coli WT GFP vs humanized-ribosome RFP mutants, fluorescence, 24 h; active compounds read low; DMSO median 0, no signal -100;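 active means significant combined selectivity score with lowered wild-type GFP, culture density cut under 30%, mutant RFP and density less affected; inactive means any of these conditions unmet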; further: one replicate is shown; some compounds called inactive have numbers as strong as hits
Ecoli rRNA inh OD600: also measured in Ecoli rRNA inh; calls as there; OD600 change, %; measured here: OD600 growth;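 optical density of the mix in the first replicate; 0 = DMSO median and -100 = no signal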
Ecoli rRNA inh RFP: also measured in Ecoli rRNA inh; calls as there; RFP signal change, %; measured here: RFP humanized mutant strains;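 first replicate; 0 = DMSO median and -100 = no signal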
* hit, by the source's call; ? = inconclusive; . = no result given.

SMILES	LANA-H2A inh	Calb FLC	T cruzi inh	B2AR ag	Beta cell apopt	ALR H2O2 inh	A1 inh	Ecoli rRNA inh	Ecoli rRNA inh OD600	Ecoli rRNA inh RFP
O=C(Nc1cccc(C(F)(F)F)c1)N(Cc1ccc(Cl)cc1)CC(O)C(F)(F)F (configuration not stated)	.	8	28	.	6	.	0.5	.	.	.
CC(=O)Nc1cccc(NC(=O)CSc2ncc(C(=O)Nc3ccc(F)cc3)c(=O)n2C)c1	2.4	1	-29	2	0	99*	-7.5	7	7	-2.1
CSc1nc(O)cc(=O)n1-c1ccc(F)cc1	1.0	-4	-6	1	-5	0	-0.5	19	22	1.3
Cc1nnsc1Sc1ccccn1	0.7	10	-15	0	-1	-5	0.0	10	-2	-2.6
CCSc1nnc(NC(=O)c2ccco2)s1	1.1	54	-11	2	0	-6	-1.0	.	.	.
Cc1cc(C)c2c(CC(=O)NCCc3ccccc3)coc2c1	-3.5	5	13	-4	-6	14	-0.1	11	6	0.8
CS(=O)(=O)N1CCc2cc(-c3csc(NC(=O)Cc4ccccc4)n3)ccc21	-4.3	7	55*	12	5	-1	0.7	.	.	.
CCCC1=Nc2cc(C(=O)NCCCN3CCN(C)CC3)ccc2Sc2ccccc21	-1.6	13	17	1	2	-22	1.0	-3	-16	11
COc1ccccc1NS(=O)(=O)c1cc(NC(=O)c2cc3ccccc3oc2=O)ccc1C	-7.4	1	17	-1	-4	.	-0.8	12	5	-1.6
Cn1c(C=O)c(C#Cc2ccccc2)c2ccccc21	-7.4	.	.	18	-1	-6	0.0	-9	-7	-2.5
CCN(CC)C(=O)CSc1nc(-c2ccccc2)ccc1C#N	2.4	7	7	-8	-4	2	0.8	21	9	-1.9
CC1CC(C)CN(C(=O)C2CC(=O)N(c3ccc4c(c3)OCCO4)C2)C1 (configuration not stated)	-2.0	.	.	2	4	0	-0.4	7	2	0.2
Cc1ccccc1NC(=O)NCCCN1CCCC1	1.8	-1	-5	-1	-3	-2	0.2	.	.	.
O=C(NC(=S)Nc1ccc(NC(=O)c2ccccc2)cc1)c1ccc(F)cc1	-0.5	5	-7	-1	-2	-12	-1.5	-5	1	-4.1
Cc1noc(C)c1COC(=O)c1cc2c(C)nn(-c3ccc(F)cc3)c2s1	2.6	-2	-6	0	-1	1	0.7	.	.	.
Cc1cc(C)n2cnnc2n1	6.0	25	-10	2	-4	-7	0.0	16	11	-0.8
O=S1(=O)C=C(Oc2ccc(F)cc2)c2ccccc21	-2.2	1	-21	8	1	1	-0.1	.	.	.
COc1cc(C(=O)COC(=O)Cc2cnc3sccn23)cc(OC)c1OC	-2.0	3	-34	-6	-5	-5	0.8	-14	-13	-2.8
Cc1ccc(NS(=O)(=O)c2cc(NC(=O)c3cc(=O)[nH]c(=O)[nH]3)ccc2Cl)c(C)c1	-3.3	3	-11	3	-2	3	1.3	-45	-64	-7.1
CC(=O)N1CC(C)Sc2ccc(S(=O)(=O)NCc3ccccc3Cl)cc21 (configuration not stated)	5.6	10	1	-5	3	37	-0.3	-30	-33	-4.5
O=C(O)c1ccc(/C=N/N2CCN(C3c4ccccc4-c4ccccc43)CC2)cc1	2.3	-3	-5	11	-8	3	0.0	6	-2	-0.6
COc1ccc(/C(C)=N/NC(=O)c2cc(-c3cccnc3)nc3ccccc23)cc1	-1.9	-22	-19	-16	-1	-30	0.5	1	1	-1.7
O=c1c2ccccc2nc(-c2ccoc2)n1CCc1ccccc1	8.3	-10	18	-4	-3	.	1.1	.	.	.
O=C(NCc1ccc2c(c1)OCO2)c1cc(Cl)ccc1Cl	6.4	-8	6	2	-1	-7	0.5	11	8	-0.1
CN(NS(C)(=O)=O)c1ncc(C(F)(F)F)cc1Cl	2.0	-14	0	-1	6	-8	-0.5	18	13	5.7
Cc1ccc(C(=O)CSc2nnc(-c3ccco3)n2C)cc1	-12	2	-8	-14	-3	19	0.8	-11	-5	-1.7
COc1ccc2nc(NC3=NC(c4ccccc4)CC(=O)N3)nc(C)c2c1 (configuration not stated)	-3.9	-3	46	-8	-10	-7	-0.2	72	9	8.9
CCOC(=O)c1c(NC(=O)c2nn(CC)cc2Br)c(C#N)cn1-c1ccccc1	3.2	-11	41	-21	.	-8	0.1	5	9	-1.0
Cc1ccnn1CC(=O)N/N=C/c1cn[nH]c1-c1ccc(F)cc1	7.0	14	-12	2	-1	.	-1.1	5	5	1.8
Cc1ccc(NC(=O)CN(C)C(=O)COC(=O)CCS(=O)(=O)c2ccc(C)cc2)cc1	-2.1	1	-5	-4	.	-2	-0.4	2	9	-2.3
O=C(CC1CS(=O)(=O)CC1CC(=O)Nc1ccc2c(c1)OCCO2)Nc1ccc2c(c1)OCCO2 (configuration not stated)	1.0	-8	-6	-16	-4	-23	0.3	8	15	2.6
Cc1cc(C)n2nc(-c3sccc3-n3c(C)ccc3C)cc2n1	-1.4	-1	.	-7	-6	17	-0.6	.	.	.
O=C(COc1ccc(Br)cc1Br)NC1CCS(=O)(=O)C1 (configuration not stated)	-2.6	0	-7	-2	-5	-8	1.2	-5	1	0.2
COc1ccc2[nH]c(=O)c(CN(C(=O)c3ccncc3)C(C)(C)C)cc2c1	5.9	7	-1	5	0	-49	0.2	.	.	.
Cc1ccc(C2=NN(C(=O)COc3ncnc4ccccc34)C(c3ccco3)C2)cc1 (configuration not stated)	-0.7	-7	32	4	-6	-13	0.0	3	8	3.7
O=C(Nc1cccc(C(F)(F)F)c1)c1ccc2nc(N3C(=O)CCC3=O)sc2c1	-2.8	20	?	8	-6	-6	0.8	.	.	.
CC(C)(C)c1ccc(C(=O)NCCC(=O)Nc2cc(Cl)ccc2N2CCOCC2)cc1	15	.	.	-3	6	3	0.0	.	.	.
O=C(NC1CCCCC1)C1CCN(c2nccs2)CC1	-2.2	.	-2	3	-3	9	-1.4	.	.	.
O=C1COc2ccc(C(=O)COC(=O)C3CC(O)CN3S(=O)(=O)c3ccc(Cl)cc3)cc2N1 (configuration not stated)	-4.7	-5	15	-3	-7	-6	0.6	-12	-8	1.6
COc1ccc(/C=C/C2=NC(=C\N(C)C)/C(=O)O2)cc1	3.7	-2	-5	1	0	37	0.3	.	.	.
CC1CCCC(C)N1CCCNC(=O)Cn1ncc2c([nH]c3ccccc32)c1=O (configuration not stated)	-5.4	6	-12	-5	-2	12	0.2	10	1	1.9
Cc1nc(NC(=O)Nc2ccc(Cl)cc2)sc1C	-0.8	-24	24	5	.	-3	-0.6	-7	-3	7.7
O=C(c1ccccc1)c1nnc(-c2ccncc2)o1	7.1	-2	-26	-6	-12	7	-8.2	.	.	.
COC(=O)C(CC(=O)c1ccc(Br)cc1)n1nc(C)cc1C (configuration not stated)	0.8	1	-7	1	-3	2	0.4	3	-6	3.0
COc1ccc(CCNC(=O)CSc2nc(N)c3c(C)c(C)oc3n2)cc1OC	0.8	-3	-3	2	-4	-3	0.2	.	.	.
O=C(NNC(=O)C1C2CCC(C2)C1C(=O)O)c1ccc(Br)o1 (configuration not stated)	-6.7	100*	-1	.	1	.	-0.2	.	.	.
CCOC(=O)c1sc2nc(CC(=O)OC)nc(N3CCN(c4ccccn4)CC3)c2c1C	2.8	5	19	-5	12	.	0.6	-11	-16	4.8
CCC(=O)Nc1cccc(C(=O)/C=C/c2ccc(F)cc2)c1	1.9	?	7	5	6	29	0.1	-35	-48	-8.6
CCCCn1c(=O)c(CCC(=O)OCC(=O)NC(C)c2ccccc2)nc2ccccc21 (configuration not stated)	4.6	-32	-2	-10	5	-24	2.1	9	14	2.1
COC(=O)c1ccc(CNC(=O)c2cc(COc3cncc(Cl)c3)on2)cc1	0.9	4	7	-2	-2	-1	2.0	1	0	-3.3
O=C(CCl)Nc1ccc(Oc2cnc3ccccc3n2)cc1	2.6	-1	15	8	-4	13	1.3	.	.	.
C/C(=N\NC(=O)c1csc(C)c1C)c1ccc(C)s1	1.8	-5	0	-5	0	-4	0.1	12	9	1.8
COC(=O)c1cccc(NC(=O)CSc2nnnn2C)c1	0.5	-6	-1	1	3	-1	0.6	.	.	.
Cc1cc(Cl)ccc1OCC(=O)Nc1cccc(S(=O)(=O)N2CCCC2)c1	-1.6	.	.	3	-1	-1	0.1	-27	-30	3.2
CCOc1ccc(NC(=O)NNC(=O)C(C)Oc2ccccc2OC)cc1 (configuration not stated)	4.2	0	-15	0	2	2	-2.0	0	3	-1.0
Cc1cc(C(=O)N/N=C/C=C/c2ccccc2[N+](=O)[O-])c(C)o1	-4.9	-6	-9	8	-1	-5	-0.6	2	6	-1.6
CN1CCN(C(=O)c2cccc(COc3cc(Cl)ccc3Cl)c2)CC1	-3.1	5	18	-10	10	13	0.9	.	.	.
CN(Cc1cccs1)C(=O)COc1cccc(-n2cnnn2)c1	0.2	6	-5	-2	0	-4	-0.5	.	.	.
CCOc1ccc(S(=O)(=O)N2CCCC(C(=O)NCc3cccnc3)C2)cc1 (configuration not stated)	-1.1	15	-8	-5	.	-4	1.0	-3	5	-0.5
CC(C)OCCCNC(=O)COc1ccc2oc3c(c2c1)CCCC3	3.0	-8	6	-9	-1	-13	1.8	-5	-13	1.0

Further records:
SMILES	LANA-H2A inh	Calb FLC	T cruzi inh	B2AR ag	Beta cell apopt	ALR H2O2 inh	A1 inh	Ecoli rRNA inh	Ecoli rRNA inh OD600	Ecoli rRNA inh RFP
O=C(c1cc2ccccc2oc1=O)N1CCCCCCC1	-9.6	4	-1	-8	-1	-10	1.8	11	4	-0.9
CC1(C)OC(=O)C(=NNc2ccc(C(=O)O)cc2)C(=O)O1	3.2	6	-7	-2	2	-2	-0.1	6	1	-4.3
CN(Cc1nc2ccccc2c(=O)[nH]1)C(=O)c1ccccc1OCc1ccc(Cl)cc1	8.2	.	.	2	5	-1	-0.3	-42	-57	-4.6
Fc1ccc(-c2nnc(NC3=NCCCCC3)o2)cc1	.	-1	-13	-7	14	.	-6.0	.	.	.
CC(=O)Nc1sc(C)c(C)c1C(=O)OCC(=O)Nc1cccc(C)c1	0.2	.	.	9	12	0	0.2	10	20	0.3
CC1(C)C2CCC1(C)C(OC(=O)C[n+]1ccccc1)C2 (configuration not stated)	-4.3	-2	9	7	-5	.	0.4	5	1	-1.1
Cc1ccc(C)c(SCC(=O)N(C)CC(=O)Nc2ccc(N3CCOCC3)cc2)c1	-3.4	.	-10	-7	-16	98*	0.0	-18	-14	1.6
O=C(c1cc(-c2cccnc2)nc2ccccc12)N1CCN(S(=O)(=O)c2cccs2)CC1	-4.5	.	.	0	-5	.	-0.2	-7	-15	0.3
O=C(Nc1ccccc1Cl)c1cccc(COc2cc(Cl)ccc2Cl)c1	4.5	3	2	-8	-4	-2	0.6	.	.	.
CCN=C1SC(CC(=O)NC(C)C)C(=O)N1CC (configuration not stated)	1.2	1	-3	5	-1	-5	-0.4	.	.	.
Cc1ccc(NCC(=O)Nc2cccc(S(=O)(=O)N(C)C)c2)c(Cl)c1	-5.9	-2	-2	8	0	-4	0.1	.	.	.
O=c1ccc(S(=O)(=O)N2CCC(Cc3ccccc3)CC2)c[nH]1	1.4	-33	-19	2	-3	-21	-0.4	.	.	.

Screening results as filed in PubChem BioAssay.

The list is partial. The share of hits here may be higher or lower than overall.
